Bioassay records deposited in PubChem BioAssay by Fisher Drug Discovery Resource Center.
NPYLR7 ag – agonists of mosquito NPYLR7 receptor, primary screen, cell-based, Aedes aegypti, calcium fluorescence, mosquito biting behavior; Aedes aegypti neuropeptide Y-like receptor 7 (NPYLR7); HEK293T NPYLR7/Galpha15, GCaMP6s calcium fluorescence; activation, % at 10 µM; 270,000 tested, 0.15% active; AID 1259423, 2018; in the data active = activation above about 40%;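 note: 0% = vehicle and 100% = reference agonist at the receptor; some compounds past the cut are filed as inactive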
NPYLR7 ag max-min – second read-out of NPYLR7 ag, no call of its own (marks repeat the call); activation, %; measured here: Max-Min RFU normalised activation; some inactives read as strong as hits;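 span of the calcium signal over five minutes; 0% = vehicle and 100% = native peptide agonist; compound fluorescence can raise it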
An asterisk follows results filed as active; & = joins results of further samples. These rows are one share of the data; rates above refer to the full screens.

Screening NC(=O)c1cc2cc([N+](=O)[O-])ccc2oc1=Nc1ccccc1F returned NPYLR7 ag -4 and NPYLR7 ag max-min -8.
Screening COc1nc(-c2cccc(F)c2)n(-c2cccc(NC(=O)Nc3ccc(F)cc3F)c2)n1 returned NPYLR7 ag 8 and NPYLR7 ag max-min 14.
Screening Cn1cnnc1SCC(=O)NC(=O)NC12CC3CC(CC(C3)C1)C2 returned NPYLR7 ag -1 and NPYLR7 ag max-min 2.
`C=CCNC(=O)N[C@H]1CCN(C(=O)CC(C)(C)C)[C@@H]1C(=O)N[C@@H](C(=O)OC)C(C)C` gave NPYLR7 ag -8 and NPYLR7 ag max-min -15.
S=C(NCc1ccc2c(c1)OCO2)NN=C1CC2CC1C1CCCC21 (centres undefined) was read as NPYLR7 ag 7 and NPYLR7 ag max-min 9.
Screening CCCOc1ccc(CN(C(=O)c2coc3c(C)cc(C)cc3c2=O)C2CCS(=O)(=O)C2)cc1 (centres undefined) returned NPYLR7 ag -3 and NPYLR7 ag max-min -8.
For Cc1csc(CNC(=O)Nc2ccc(N3CCSCC3)cc2)n1 the results were NPYLR7 ag 3 and NPYLR7 ag max-min 1.
CCN1CCCC1CN(CCN(C)C)S(=O)(=O)c1cc(F)cc(F)c1 (centres undefined) was read as NPYLR7 ag 18 and NPYLR7 ag max-min 18.
For O=c1oc2ccccc2n1CCNc1cncc(Cl)n1 the results were NPYLR7 ag -5 and NPYLR7 ag max-min -5.
For COC(=O)c1ccccc1NC(=O)N1CCN(CC(OCc2c(F)cccc2F)c2ccc(Cl)cc2)CC1 (centres undefined) the results were NPYLR7 ag -2 and NPYLR7 ag max-min 9.
`CC(=O)Oc1ccc(CSc2nnc(-c3cc(-c4cccs4)nc4cc(C)c(C)cc34)n2C(C)C)cc1` gave NPYLR7 ag -2 and NPYLR7 ag max-min 6.
`COc1cc(OC)cc(C(=O)Nc2ccc(-c3nc4ccccc4o3)c(O)c2)c1` gave NPYLR7 ag -2 and NPYLR7 ag max-min -8.
`CCc1nc2ccc(C(=O)N(C)CCN(C)C)cn2c1N(C=O)CC` gave NPYLR7 ag -6 and NPYLR7 ag max-min -11.
Fc1cccc(Nc2cc3[nH]c(-c4cccc(F)c4)cc3cn2)c1 was read as NPYLR7 ag 0 and NPYLR7 ag max-min -3.
NC1CCC(Nc2nccc3c2ncn3Cc2ccccc2)CC1 (centres undefined) was read as NPYLR7 ag -5 and NPYLR7 ag max-min -12.
For COc1ccc(Cl)cc1C(=O)NCCN1CCn2cc(OC)c(=O)cc2C1=O the results were NPYLR7 ag 10 and NPYLR7 ag max-min 6.
For COc1ccc(-c2cn(S(=O)(=O)c3ccc(C(C)(C)C)cc3)nc2N)cc1 the results were NPYLR7 ag -1 and NPYLR7 ag max-min -2.
`CCc1c(C)nn(CCNC(=O)c2ccc3cccc(F)c3n2)c1C` gave NPYLR7 ag 20 and NPYLR7 ag max-min 10.
COc1ccc(-c2csc(=Nc3ccccc3)n2NC(=O)CNc2ncc(C(F)(F)F)cc2Cl)cc1 was read as NPYLR7 ag -9 and NPYLR7 ag max-min -15.
Screening Cc1nnc(SCc2cc(Cl)cc3c2OCOC3)s1 returned NPYLR7 ag -3 and NPYLR7 ag max-min -2.

A draw from above in order of molar mass, lowest first.
NC1CCC(Nc2nccc3c2ncn3Cc2ccccc2)CC1 (centres undefined) was read as NPYLR7 ag -5 and NPYLR7 ag max-min -12.
`CCc1nc2ccc(C(=O)N(C)CCN(C)C)cn2c1N(C=O)CC` gave NPYLR7 ag -6 and NPYLR7 ag max-min -11.
`COc1cc(OC)cc(C(=O)Nc2ccc(-c3nc4ccccc4o3)c(O)c2)c1` gave NPYLR7 ag -2 and NPYLR7 ag max-min -8.
For COc1ccc(Cl)cc1C(=O)NCCN1CCn2cc(OC)c(=O)cc2C1=O the results were NPYLR7 ag 10 and NPYLR7 ag max-min 6.
COc1ccc(-c2csc(=Nc3ccccc3)n2NC(=O)CNc2ncc(C(F)(F)F)cc2Cl)cc1 was read as NPYLR7 ag -9 and NPYLR7 ag max-min -15.

Quoted at random: 6 entries already listed.
S=C(NCc1ccc2c(c1)OCO2)NN=C1CC2CC1C1CCCC21 (centres undefined) was read as NPYLR7 ag 7 and NPYLR7 ag max-min 9.
COc1ccc(-c2csc(=Nc3ccccc3)n2NC(=O)CNc2ncc(C(F)(F)F)cc2Cl)cc1 was read as NPYLR7 ag -9 and NPYLR7 ag max-min -15.
Screening CCCOc1ccc(CN(C(=O)c2coc3c(C)cc(C)cc3c2=O)C2CCS(=O)(=O)C2)cc1 (centres undefined) returned NPYLR7 ag -3 and NPYLR7 ag max-min -8.
`CC(=O)Oc1ccc(CSc2nnc(-c3cc(-c4cccs4)nc4cc(C)c(C)cc34)n2C(C)C)cc1` gave NPYLR7 ag -2 and NPYLR7 ag max-min 6.
`CCc1nc2ccc(C(=O)N(C)CCN(C)C)cn2c1N(C=O)CC` gave NPYLR7 ag -6 and NPYLR7 ag max-min -11.
NC1CCC(Nc2nccc3c2ncn3Cc2ccccc2)CC1 (centres undefined) was read as NPYLR7 ag -5 and NPYLR7 ag max-min -12.

Next structures.
`CN(Cc1ccccc1)C1CCCN(C2CCN(c3ccc4c(c3)OCO4)CC2)C1` (centres undefined) gave NPYLR7 ag 1 and NPYLR7 ag max-min -2.
Screening CC1CC(C)CN(C(=O)Cn2cc(C(F)(F)F)cc(Cl)c2=O)C1 (centres undefined) returned NPYLR7 ag 1 and NPYLR7 ag max-min -3.
O=C(N1CC(O)C1)C1(c2ccc(Br)cc2)CCC1 was read as NPYLR7 ag 0 and NPYLR7 ag max-min -3.
Screening CCOc1ccc(NC(=O)CSc2nc(=O)n(CCCN(CC)CC)c3c2CCC3)cc1 returned NPYLR7 ag -2 and NPYLR7 ag max-min 4.
For COc1ccc(-c2c(C)nn(C)c2N)cc1OC the results were NPYLR7 ag -1 and NPYLR7 ag max-min -1.
Screening O=C(NCCn1nc(-c2cccs2)ccc1=O)C(c1ccccc1)c1ccccc1 returned NPYLR7 ag 2 and NPYLR7 ag max-min -1.
Screening CN1C(=O)Cc2cc(S(=O)(=O)Nc3ccc(Br)cc3Cl)ccc21 returned NPYLR7 ag 3 and NPYLR7 ag max-min 1.
Screening CON(C)C(=O)c1ccc(S(=O)(=O)NCCc2cccs2)cc1 returned NPYLR7 ag 11 and NPYLR7 ag max-min 11.
`CNC(=O)Cc1ccc(-n2ccnc2)cc1` gave NPYLR7 ag 5 and NPYLR7 ag max-min 1.
`COC(=O)C1=C(OCc2ccccc2)c2ccccc2S(=O)(=O)N1c1c(C)cccc1C` gave NPYLR7 ag 4 and NPYLR7 ag max-min 10.
COc1cccc(C2=NN(C(=O)CN(C)C3CCCCC3)C(c3ccccc3OC)C2)c1 (centres undefined) was read as NPYLR7 ag 2 and NPYLR7 ag max-min 10.
Screening O=C(Nc1ccccc1Oc1cccnc1)C1CCCN(Cc2ccc3c(c2)CCO3)C1 (centres undefined) returned NPYLR7 ag 8 and NPYLR7 ag max-min 8.
CCN1CCN(C(=O)c2ccc(Nc3c(Oc4ccccc4)cnn(Cc4ccccc4)c3=O)cc2)CC1 was read as NPYLR7 ag 7 and NPYLR7 ag max-min 16.
For Cc1ccc(-n2ncc3c(=O)n(NC(=O)C(C)C)cnc32)cc1C the results were NPYLR7 ag 7 and NPYLR7 ag max-min 4.
`CCOC(=O)C1CCCN(C(=O)c2nn(-c3cccc(F)c3)c(=O)n(Cc3ccccc3Cl)c2=O)C1` (centres undefined) gave NPYLR7 ag 5 and NPYLR7 ag max-min 3.
CC1CC1C(=O)N1CCCCC1C(=O)Nc1cccc(Cl)c1Cl (centres undefined) was read as NPYLR7 ag 5&1 and NPYLR7 ag max-min 0&0.
For O=C1NCCN(CCc2ccccc2)C1CC(=O)N1CCN(c2ncccn2)CC1 (centres undefined) the results were NPYLR7 ag 23 and NPYLR7 ag max-min 11.
Clc1ccc(-c2nnc3c4ccccc4nc(N4CCCNCC4)n23)cc1 was read as NPYLR7 ag 20 and NPYLR7 ag max-min 10.
Screening O=C(CCCN1C(=O)NC2(CCCC2)C1=O)Nc1nccs1 returned NPYLR7 ag 0 and NPYLR7 ag max-min 4.
CNCC(O)C(O)C(O)C(O)COC(=O)CCc1cc(C(C)(C)C)c(O)c(C(C)(C)C)c1 (centres undefined) was read as NPYLR7 ag 4 and NPYLR7 ag max-min 42.
For CN1C(=O)c2ccc(S(=O)(=O)NCCn3ncnn3)cc2C1=O the results were NPYLR7 ag 1 and NPYLR7 ag max-min -5.
`COC(=O)c1c(NC(=O)CNC(c2ccccc2)c2ccccc2)sc2c1CCC2` gave NPYLR7 ag -8 and NPYLR7 ag max-min -12.
Screening CC(C)c1cnc(CNc2c(F)cccc2-n2cccn2)o1 returned NPYLR7 ag -2 and NPYLR7 ag max-min -2.
COc1ccc(C(=O)NCC(=O)N=Nc2c(O)n(CCc3ccccc3)c3ccccc23)cc1OC was read as NPYLR7 ag -1 and NPYLR7 ag max-min -6.
COc1cccc(COc2coc(CN3CCCN(C(=O)c4ccccc4OC(F)(F)F)CC3)cc2=O)c1 was read as NPYLR7 ag 25 and NPYLR7 ag max-min 17.
Cc1cccc(C)c1NC(=O)CC1S/C(=N/N=C2CCCC2)NC1=O (centres undefined) was read as NPYLR7 ag 4 and NPYLR7 ag max-min 2.
Cc1cccc(-c2ccc(C(=O)NC(C)COCC(F)(F)F)c(=O)[nH]2)c1 (centres undefined) was read as NPYLR7 ag 9 and NPYLR7 ag max-min 6.
`COC(=O)c1sccc1NC(=O)c1c(C)noc1C` gave NPYLR7 ag -9 and NPYLR7 ag max-min -9.
`CCCCc1ccc(C(=O)Oc2cccc(-c3nc4cc(C)ccn4c3NC(C)(C)CC(C)(C)C)c2)cc1` gave NPYLR7 ag 10 and NPYLR7 ag max-min 12.
Cc1cc(C(=O)N(Cc2cccs2)CC(F)(F)F)c(C)s1 was read as NPYLR7 ag 0 and NPYLR7 ag max-min -1.
O=C(OCc1cc(-c2ccc3c(c2)OCO3)on1)c1ccco1 was read as NPYLR7 ag -1 and NPYLR7 ag max-min -1.
For Cn1ncc2c(N3CCCC3c3cccc(Cl)c3)ncnc21 (centres undefined) the results were NPYLR7 ag -8 and NPYLR7 ag max-min -9.
`CC(=O)c1ccc(S(=O)(=O)N2CCC(n3nc(C(C)C)cc3C(C)C)CC2)cc1` gave NPYLR7 ag 9 and NPYLR7 ag max-min 1.
Cn1cc(CN2CCC(N3CCOCC3)CC2)c(-c2ccc(C3CCCCC3)cc2)n1 was read as NPYLR7 ag 12 and NPYLR7 ag max-min -1.
`Cc1ccc(OCc2cc(C(=O)N(C)Cc3nccn3C)no2)cc1C` gave NPYLR7 ag -5 and NPYLR7 ag max-min -7.
For CCN1C(=O)NC2(CCN(C(=O)c3ccc(-c4ccccc4)cc3)CC2)C1=O the results were NPYLR7 ag 7 and NPYLR7 ag max-min 6.
`COCCn1c(SCc2ccc(F)cc2)nc2c([nH]c3ccccc32)c1=O` gave NPYLR7 ag -1 and NPYLR7 ag max-min -1.
For CC(C)Oc1cccc(-c2cc(C(=O)N3CCOCC3)ccn2)c1 the results were NPYLR7 ag 2 and NPYLR7 ag max-min 2.
Screening O=C1CCc2cc(S(=O)(=O)NNC(=O)c3ccco3)ccc2N1 returned NPYLR7 ag 11 and NPYLR7 ag max-min 7.
CCC1(C)CC(CC(=O)OC(C)CN(C)C)(c2ccccc2)CCO1 (centres undefined) was read as NPYLR7 ag -12 and NPYLR7 ag max-min -17.

Reprinted from the entries so far, two compounds:
Screening O=C1CCc2cc(S(=O)(=O)NNC(=O)c3ccco3)ccc2N1 returned NPYLR7 ag 11 and NPYLR7 ag max-min 7.
CCC1(C)CC(CC(=O)OC(C)CN(C)C)(c2ccccc2)CCO1 (centres undefined) was read as NPYLR7 ag -12 and NPYLR7 ag max-min -17.

Later entries.
COc1cccc(C=CC(=O)c2cccc(N3CCOCC3)c2)c1 was read as NPYLR7 ag 5 and NPYLR7 ag max-min 4.
Screening CS(=O)(=O)Cc1nc(CNc2c(F)cccc2F)cs1 returned NPYLR7 ag -21&0 and NPYLR7 ag max-min -23&-1.
c1cncc(CN(Cc2ccc3c(c2)OCO3)Cc2cccc3nsnc23)c1 was read as NPYLR7 ag 6 and NPYLR7 ag max-min -3.
Screening COc1cc(N=c2scc(-c3ccccc3)n2-c2ccc(C)cc2)cc(OC)c1 returned NPYLR7 ag -2 and NPYLR7 ag max-min -3.
Screening NC(=O)Nc1ccc(CCn2cc(Br)cn2)cc1 returned NPYLR7 ag 5 and NPYLR7 ag max-min 1.
For N#Cc1cc2sc3nc4ccccc4n3c2cc1C#N the results were NPYLR7 ag 22 and NPYLR7 ag max-min 12.
For Cc1ccc2oc(C(=O)NCCc3cccs3)c(C)c2c1 the results were NPYLR7 ag 3 and NPYLR7 ag max-min 0.
For COc1cccc(CNC(=O)C2CCN(C(=O)[C@@H](Cc3ccccc3)NC(=O)/C=C/c3ccc(OC(F)(F)F)cc3)CC2)c1 the results were NPYLR7 ag -9 and NPYLR7 ag max-min 8.
Cn1c(=O)c2c(nc(CN3CCCCC3)n2CCCc2ccccc2)n(C)c1=O was read as NPYLR7 ag 17 and NPYLR7 ag max-min 11.
Screening COc1ccc(-c2nnc(NC(=O)c3ccc(Br)cc3)s2)c(OC)c1 returned NPYLR7 ag -10 and NPYLR7 ag max-min -12.
`Fc1ccc(CN(Cc2ccncc2)Cc2cccn2-c2ncccn2)cc1` gave NPYLR7 ag 0 and NPYLR7 ag max-min 2.
CCC(=O)C1=C(c2ccc(C)cc2)N(C(=O)CC)n2c(CC)nnc2S1 was read as NPYLR7 ag 8 and NPYLR7 ag max-min 5.
`COc1ccc(-c2cc(C(=O)O)n3nc(-c4ccccc4)cc3n2)cc1` gave NPYLR7 ag 0 and NPYLR7 ag max-min 6.
Screening c1ccc(CNc2ncnc3c2sc2ncsc23)cc1 returned NPYLR7 ag 2 and NPYLR7 ag max-min -1.
`CCC(=O)Nc1c(-c2ccc(C)cc2)nc2ccccn12` gave NPYLR7 ag -9 and NPYLR7 ag max-min -2.
CCc1ccc(C(C2Sc3nc(CC)nn3C2=O)N2CCC(O)CC2)cc1 (centres undefined) was read as NPYLR7 ag -3 and NPYLR7 ag max-min -7.
